# Assay outcomes (PubChem)
# HNF4A DNA FP: change in binding of human HNF4A to DNA, primary screen, biochemical, fluorescence polarization, FITC-DNA; Hepatocyte nuclear factor 4-alpha (Homo sapiens), P41235; 1 h; activity change, % at 10 µM; actives 0.3% (n = 360,000); AID 1224865, 2016; in the data active = activity change above about 30%, passing the limit was not always enough;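 note: controls were the assay level and a saturating level of protein; the project sought stronger binding though the title names inhibitors; some compounds called inactive have numbers as strong as hits; positive values seem to mean higher polarization but the record does not say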
# Target sequence (P41235 whole entry, looked up): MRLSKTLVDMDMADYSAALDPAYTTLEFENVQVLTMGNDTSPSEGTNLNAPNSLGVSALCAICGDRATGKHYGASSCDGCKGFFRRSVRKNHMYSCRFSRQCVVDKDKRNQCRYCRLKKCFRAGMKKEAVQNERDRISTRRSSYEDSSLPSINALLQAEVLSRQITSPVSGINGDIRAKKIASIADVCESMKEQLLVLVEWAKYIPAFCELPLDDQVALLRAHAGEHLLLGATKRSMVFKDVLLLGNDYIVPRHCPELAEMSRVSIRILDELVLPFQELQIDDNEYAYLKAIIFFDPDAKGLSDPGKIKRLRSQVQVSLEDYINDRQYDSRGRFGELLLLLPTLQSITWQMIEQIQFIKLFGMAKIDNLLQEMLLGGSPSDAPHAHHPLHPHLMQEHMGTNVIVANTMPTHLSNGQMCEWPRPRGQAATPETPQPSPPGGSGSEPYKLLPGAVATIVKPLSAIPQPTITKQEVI
# Calb FLC: C. albicans growth inhibition with fluconazole, primary screen, CaCi-2 strain, Alamar Blue fluorescence. C. albicans CaCi-2 (fluconazole-resistant clinical isolate) + fluconazole, 48 h. growth inhibition, % (test concentration not listed). actives 0.57% (n = 300,000);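 active = most replicates above 75%; inconclusive = exactly half above 75%; inactive = most below 75%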;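 note: all wells also contain fluconazole at 8 µg/ml as a sub-toxic cotreatment; 0% = median of DMSO wells and 100% = median of geldanamycin control wells; wells of about 8 µL received 7.5 nL stock; the first replicate is given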
# Beta2AR agonist: beta2AR agonists driving receptor internalization, primary screen, cell-based, FAP fluorogen, flow cytometry. Beta-2 adrenergic receptor (Homo sapiens), P07550. Am2.2-beta2AR cells; reference of the scale not given here. response, % (no concentration beside the values). actives 0.43% (n = 340,000);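 active = response above a set limit, near 3 SD of response in nonfluorescent compounds, cut at about 42% in these data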;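 note: stock transfer was 100 nL into about 11 µL; a reference agonist was the positive control; negative values mostly stem from fluorescent compounds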
# Target sequence (P07550 whole entry, looked up): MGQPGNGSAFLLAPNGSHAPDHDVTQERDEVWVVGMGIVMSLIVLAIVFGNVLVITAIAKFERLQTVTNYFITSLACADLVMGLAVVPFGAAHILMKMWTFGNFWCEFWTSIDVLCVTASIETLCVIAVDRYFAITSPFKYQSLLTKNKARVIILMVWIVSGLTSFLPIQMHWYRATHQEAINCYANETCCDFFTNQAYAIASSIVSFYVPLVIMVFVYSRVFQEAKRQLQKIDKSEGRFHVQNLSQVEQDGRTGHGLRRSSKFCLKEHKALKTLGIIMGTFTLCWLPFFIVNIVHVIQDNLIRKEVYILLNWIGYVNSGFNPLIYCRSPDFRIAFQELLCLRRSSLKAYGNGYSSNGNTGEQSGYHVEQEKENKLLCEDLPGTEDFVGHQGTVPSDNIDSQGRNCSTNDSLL
# Vif A3G: inhibitors of Vif binding to APOBEC3G peptide, primary screen, biochemical, TR-FRET, GST-Vif 1-94, biotin-A3G peptide, dose response retest (AID 1117319); actives 0.57% (n = 260,000); one-dose inhibition, %; IC50 in µM for titrated hits; TR-FRET GST-Vif / biotin-A3G peptide binding; higher % means a stronger effect; test concentration not given here; strong numbers were not always called active; Virion infectivity factor (Human immunodeficiency virus type 1 group M subtype B (isolate …;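 active = above the screen mean plus three standard deviations and confirmed in dose response; inconclusive = results disagree or hit not tested in dose response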;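 note: Vif residues 1-94 fused to GST binding biotinylated APOBEC3G peptide 110-148; 0% = full assay without inhibitor and 100% = GST in place of GST-Vif; retest series ran down from 100 µM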
# ALR inh: inhibitors of human ALR sulfhydryl oxidase, primary screen, biochemical, H2O2 detection, HRP-luminol luminescence, single point. purified ALR, DTT oxidation. inhibition, % (test concentration not listed). actives 3.8% (n = 290,000). FAD-linked sulfhydryl oxidase ALR (Homo sapiens), P55789;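 active = mean and each replicate at 75% or more; inconclusive = only one of the two met; inactive = neither met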;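 note: stock transfer was 7.5 nL into about 7.5 µL; 0% = neutral wells and 100% = wells with inactivated enzyme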
# Target sequence (P55789 whole entry, looked up): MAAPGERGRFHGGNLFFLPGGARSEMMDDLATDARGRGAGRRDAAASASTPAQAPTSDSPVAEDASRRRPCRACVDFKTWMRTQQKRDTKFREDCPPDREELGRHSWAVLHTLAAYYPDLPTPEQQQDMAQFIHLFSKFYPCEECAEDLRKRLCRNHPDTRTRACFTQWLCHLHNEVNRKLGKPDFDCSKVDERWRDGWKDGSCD
# RanGTP-Impb inh: inhibitors of RanGTP-importin-beta interaction, primary screen, biochemical, FRET, CFP-Ran, YFP-importin-beta, homogeneous; cell-free CFP-Ran/YFP-importin-beta FRET ratio; AID 2216, 2009; actives 1.1% (n = 300,000); inhibition, % (test concentration not listed); Ran GTPase (GTP-bound) - importin-beta complex;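 active = most replicates above 15%; inconclusive = exactly half above 15%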;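 note: 0% = DMSO wells and 100% = Ran loaded with GDP instead of GTP; wells of about 40 µL received 100 nL stock; the first replicate is given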
# LANA-H2B inh: blockers of LANA interaction with H2A/H2B – biochemical, FP readout, HTS, primary screen | Protein LANA1 (Human herpesvirus 8 type P (isolate GK18)), Q9QR71 | cell-free LANA-H2A/H2B peptide, fluorescence polarization | inhibition, % (test concentration not listed) | actives 0.6% (n = 320,000) | AID 2629, 2010; in the data active = inhibition mostly above about 10%, no sharp cut-off; inactive = mostly below about 6.7%;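 note: stock transfer was 7.5 nL into about 10 µL; 0% = median of vehicle wells and 100% = median of positive control wells; one replicate is shown; the record names a cut of 25% in any replicate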
# An asterisk follows results filed as active; ? = inconclusive; · = no result given; & = joins results of further samples. Rows were taken by chance; any-hit rate near 6.3%.
SMILES,HNF4A DNA FP,Calb FLC,Beta2AR agonist,Vif A3G,ALR inh,RanGTP-Impb inh,LANA-H2B inh
O=C(CSc1nnc(Cc2csc(Nc3cccc(Cl)c3)n2)o1)N1CCc2ccccc21,7.7,-23,6,-14%,4,-2.6,2.5
NC(=O)c1cc(S(=O)(=O)Nc2ccc(OC(F)(F)F)cc2)cs1,1.6,11,-6,-8%,12,0.3,-6.6
CCNc1ccc(C(=O)OCC)cc1NC(=O)c1cccc(S(=O)(=O)N2CCOCC2)c1,0.3,10,15,23%&1%,-3,-3.4,1.8
C=CCn1c(SCC(=O)NCC)nc2sc3c(c2c1=O)CCC3,0.1,9,-21,·,-5,0.5,-4.1
C/C(=N\NC(=S)NCCc1ccccc1)c1ccc(O)cc1O,-1.1,-4,-6,·,·,?,-11
O=C(NCc1ccc(F)cc1)C1CCN(C(=O)Nc2ccc(F)cc2)CC1,2.9,-5,12,-3%,6,4.2,-4.0
CCC1(C)Cc2c(sc3nc(SC)nc(N)c23)CO1 (configuration not stated),1.2,3,-3,-51%,-12,2.3,0.0
Cn1c(=O)oc2cc(S(=O)(=O)N3CCCC(C(=O)NCCN4CCOCC4)C3)ccc21 (configuration not stated),-7.2,·,-6,3%,-12,·,-1.2
COC(=O)c1cc2ccccc2c(=O)s1,-0.9,-6,-10,3%,-4,1.2,4.2
O=C(CCCc1nc2ccccc2s1)NCc1ccccc1F,2.8,0,-18,-3%,-6,-2.7,3.1
COc1ccc(S(=O)(=O)N2CCC(C(=O)NCC3CCCO3)CC2)cc1 (configuration not stated),-0.9,4,8,3%,-4,1.7,-3.7
CC1(C)Cc2ccccc2-c2nc(NN)[nH]c(=O)c21,1.3,7,12,-7%,6,1.9,-1.3
CC(CC(=O)NC1CCCCC1)S(=O)(=O)c1ccc2c(c1)CCN2C(=O)C1CC1 (configuration not stated),2.4,-2,-27,·,-7,-0.5,0.6
Nc1nonc1-c1nc2ccccc2n1CC(=O)N/N=C/c1ccc(-c2ccccc2C(=O)O)o1,-5.2,26,-4,20%,11,4.5,6.8
Fc1ccc(-c2nnc(-n3nnc4ccccc43)c3ccccc23)cc1,0.7,33,-7,-7%,-6,3.2,0.1
CCOc1ccc2ccccc2c1/C=N/NC(=O)c1c(C)cc(C)[nH]c1=O,6.8,3,0,·,-4,-2.2,-7.1
C=CCNC(=O)COc1ccc(S(=O)(=O)NC2CCCCC2)cc1,1.8,5,-7,1%,-4,1.2,-0.1
Cc1ccc(C(=O)NC(C)c2ccc(-n3ccnc3)cc2)cc1S(=O)(=O)N1CCOCC1 (configuration not stated),13,-4,5,-4%,-1,-3.3,-0.8
Cc1cnc(NC(=O)c2ccncc2)s1,1.2,-7,-1,-6%,-1,-2.4,4.0
CC(NC(=O)COc1ncnc2cc([N+](=O)[O-])ccc12)c1ccccc1 (configuration not stated),-2.6,-6,2,·,-40,1.6,-1.3
CCCn1c(=O)[nH]c(=O)c2c1nc(-c1ccccc1OC(F)F)n2CCOC,2.6,-12,5,4%,-2,-8.3,2.8
CCN1C(=O)CSC1=Nc1ccc(OC)cc1,1.5,8,6,-3%,-2,?,0.0
Cc1ccc(-c2noc(CN3C(C)CCCC3C)n2)cc1 (configuration not stated),-0.9,5,11,5%,-20,8.8,-6.7
CS(=O)(=O)N(Cc1ccc(C(=O)NCCSc2ccccn2)cc1)c1ccccc1,-1.9,-7,-2,·,1,1.9,-0.5
Cc1ccc(NC(=O)CN2C(=O)N/C(=C/c3ccccc3OCc3cccc(C(=O)O)c3)C2=O)cc1,0.5,-6,2,·,·,4.1,-2.8

# Only LANA-H2B inh (two entries from above):
SMILES | LANA-H2B inh
CCNc1ccc(C(=O)OCC)cc1NC(=O)c1cccc(S(=O)(=O)N2CCOCC2)c1 | 1.8
C=CCn1c(SCC(=O)NCC)nc2sc3c(c2c1=O)CCC3 | -4.1

# The list continues:
SMILES,HNF4A DNA FP,Calb FLC,Beta2AR agonist,Vif A3G,ALR inh,RanGTP-Impb inh,LANA-H2B inh
Cc1ccc2c(CC(=O)OCn3nnc4ccccc4c3=O)coc2c1,-3.5,-6,9,2%,3,-0.9,1.4
O=C(COC(=O)CNC(=O)C1CCCCC1)Nc1ccc(F)c([N+](=O)[O-])c1,4.0,·,-1,·,2,·,-2.5
Cc1ccc(CCNC(=O)C2CCN(S(=O)(=O)c3cccc4nsnc34)CC2)cc1,-0.5,-5,7,-6%,0,-0.3,3.2
CS(=O)(=O)Oc1ccc(Br)c2cccnc12,-1.2,9,-8,-3%,-17,3.8,1.1
CCOC(=O)/C=c1\s/c(=C\c2ccc(-c3ccccc3)cc2)c(=O)n1CC(=O)NCc1ccc2c(c1)OCO2,19,-2,13,17%,-5,-11,6.5
O=C(O)c1ccccc1Sc1ccccc1S(=O)(=O)NC1CCCCC1,0.2,7,4,·,0,-0.8,1.8
CC[C@@]1(C(=O)OC)N[C@H](CN(C)C(=O)c2ccc(C(C)(C)C)cc2)[C@@H]2C(=O)N(Cc3ccccc3)C(=O)[C@@H]21,-0.6,·,20,1%,·,·,·
CC(=O)Nc1ccccc1C(=O)N1CCN(Cc2ccccc2)CC1,-1.6,-5,4,4%,4,-2.4,-5.1
COc1ccc(CNC(=O)c2cc(S(=O)(=O)N3CCOCC3)cn2C)cc1,-0.7,-3,2,·,4,3.6,2.5
CCOc1ccccc1NC(=O)NS(=O)(=O)c1ccc(C)cc1,2.2,-2,6,3%,-13,4.1,7.3
Cc1cc(NC(=O)c2cnn3cccnc23)nn1CC(=O)Nc1cccnc1,1.3,-8,2,4%,-4,-0.7,-0.4
COc1ccc2cc(CN(Cc3ccco3)Cc3nnnn3C3CCCCC3)c(=O)[nH]c2c1,0.0,-17,-11,29%&-1%,0,0.4,0.5
O=S(=O)(Nc1ccc(F)cc1Cl)c1ccc(-c2cnc(C3CC3)o2)cc1,0.1,-2,8,·,-9,0.6,·
Cc1ccc(S(=O)(=O)/N=C(\c2ccccc2)N(C)S(=O)(=O)c2ccccc2)cc1,4.0,8,-12,11%,-2,-2.7,0.8
CCn1c(=O)c(=O)[nH]c2cc(C(=O)NC3CC3)ccc21,0.2,2,2,5%,-5,?,3.5
NC(=S)N/N=C1\CC(n2nnnc2-c2ccccc2Cl)C2COC1O2 (configuration not stated),-0.2,5,0,5%,50,-1.9,-2.4
Cc1ccc(NC2=NCC(=O)N2C2CCCC2)cc1C,-0.8,12,-14,?,21,3.3,0.5
COP(=O)(OC)c1nc(-c2cccc3ccccc23)oc1N1CCCCC1,1.0,-1,5,-3%,-21,5.4,-3.5
CS(=O)(=O)NCc1ccc(C(=O)NC2CCCCC2)cc1,-0.8,-4,2,1%,-6,0.8,0.7
NS(=O)(=O)c1ccc(CNC(=O)c2ccc(S(=O)(=O)NCc3ccco3)cc2)cc1,-0.5,·,4,-7%,3,·,0.9
Cn1c2c(c(=O)n(C)c1=O)C(c1cccc([N+](=O)[O-])c1)Nc1ccccc1O2 (configuration not stated),1.0,-2,-3,0%,4,3.5,-4.1
O=C(Cc1ccc(Cl)cc1)Nc1ccc(Cl)cn1,1.9,-19,-1,1%,-6,3.0,-1.7
O=C(CSCc1ccccc1)Nc1ccc2c(c1)C(=O)NC2=O,-1.9,-3,2,10%,8,-0.5,0.9
CC(=O)c1ccc(S(=O)(=O)Nc2ccc(Cl)c(S(=O)(=O)N3CCCC3)c2)cc1,1.4,·,-3,·,-6,·,1.7
CC(=O)c1ccc(N2CCN(C(=O)C3CCN(S(=O)(=O)c4cccs4)CC3)CC2)cc1,3.5,0,-1,-35%,0,-0.6,0.4
# Next section:
SMILES,HNF4A DNA FP,Calb FLC,Beta2AR agonist,Vif A3G,ALR inh,RanGTP-Impb inh,LANA-H2B inh
CCOc1ccc(NC(=O)NCCN2CCN(c3cccc(C)c3C)CC2)cc1,-0.4,-1,8,7%,-11,-0.5,0.7
CCNS(=O)(=O)c1ccc(NS(C)(=O)=O)cc1,-3.2,-14,10,0%,-10,5.2,0.0
Cc1ccc(NC(=O)CCOc2ccccc2)c(C)c1,1.1,-1,0,-4%,5,4.9,-1.7
CC12CCC(C(N)C1=O)C2(C)C (configuration not stated),-0.7,·,-4,-5%,·,·,·
c1ccc(CCNc2ncnc3c2cnn3-c2ccccc2)cc1,5.4,-11,7,16%,0,-0.2,1.9
CCCc1cc(=O)[nH]c(SCC(=O)NC2(C#N)CCCCC2)n1,3.4,·,9,-9%,1,·,7.3
C/C(=N/NC(=O)c1sc(=S)n(C)c1C)c1ccccc1,1.2,11,-3,15%,-7,1.9,-3.9
CCOC(=O)c1c(C)n(CCOc2ccccc2)c2ccc(O)cc12,-2.1,15,-2,5%,-10,-1.6,1.5
Cc1ccccc1N1C(=O)C(Oc2ccc(Cl)cc2)C1CNCC1CCCO1 (configuration not stated),2.1,0,0,-2%,-11,6.4,0.9
CC1=C(C(=O)OC(C)C)C(c2ccc(N(C)C)cc2)C2=C(CC(C)(C)CC2=O)N1 (configuration not stated),1.2,-12,1,25%,37,1.0,3.2
O=C(CNS(=O)(=O)c1c(Cl)cccc1Cl)N1CCCCCC1,5.0,-21,0,-2%,-4,?,-5.0
CC1NC(C)c2c(ccc3ccccc23)O1 (configuration not stated),1.9,·,-1,3%,·,·,·
COc1ccc(NC(=O)CN(C)C(=O)c2ccc(S(=O)(=O)Nc3ccccc3C)cc2)cc1,1.5,·,4,2%,·,·,·
O=C(CSc1ncccn1)NC(=O)Cc1ccccc1,-2.8,·,5,-2%,0,·,11
CC(C)(C)SC(C(=O)N1CCOCC1)c1ccc(Br)cc1 (configuration not stated),-0.3,-9,3,·,·,-1.5,-0.3
COc1ccc(CCNC(=O)C2C3CCC(C3)C2C(=O)O)cc1OC (configuration not stated),-2.6,-6,3,-1%,-2,2.7,-2.2
Cc1ccc(S(=O)(=O)c2cccc(S(=O)(=O)N3CCCC3)c2)cc1S(=O)(=O)N1CCCC1,-1.4,3,24,30%,-26,-4.5,0.3
COc1ccc(C(=O)NCC(=O)OCC(=O)N2CCCc3ccccc32)cc1,-16,16,-12,15%,-21,-1.8,0.3
O=C(NCC1CCCCC1)c1cccc([N+](=O)[O-])c1,1.1,-3,-11,·,3,?,2.8
COc1ccc(-c2csc(-n3ncc(-c4ccccn4)c3N)n2)cc1,28*,29,3,-2%,·,-0.4,-1.2
CC1(C)CC(=O)C2=C(C1)NC1=C(C(=O)c3ccccc31)C2c1ccccc1 (configuration not stated),0.2,16,-11,-4%,·,1.8,·
CC12CCC(C(=O)NC3CCCC3)(CC1=O)C2(C)C (configuration not stated),2.5,-9,-14,-6%,-6,5.0,-1.7
O=C(CCS(=O)(=O)c1ccccc1)Nc1cccc(-c2nc3ccccc3s2)c1,0.7,30,10,9%,-1,4.4,0.9
Nc1nc2cc3ccccc3cc2[nH]c1=O,-1.7,-11,6,-5%,-37,-1.1,-0.3
COc1ccc(CNC(=O)C2CCCN(S(=O)(=O)c3ccc(Br)s3)C2)cc1 (configuration not stated),1.6,19,-9,·,0,6.8,-1.5
Cc1csc(SCC(=O)NC(=O)NCc2ccccc2)n1,-1.0,-4,2,-3%,·,0.5,3.9
CCOc1ccc(S(=O)(=O)N2CCN(C(=S)NC3CC3)CC2)cc1,-3.4,-18,-16,-5%,-2,2.0,2.3
